Biofilm kill mix: mixture kills Candida albicans biofilm cells; inhibition, % at 7.6 µM; AID 1242; C. albicans biofilm persisters + clotrimazole, fluorescence viability; primary screen in compound mixtures of four per well; 120,000 compounds, 0.02% hits;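 active = inhibition above 30.3% in the primary screen of four-compound pools, then above 30% when the compound was retested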;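 note: compounds exposed to preformed 24 h biofilms for 48 h; the number belongs to the whole pool; some results filed as inactive read as strong as hits; inactives centre near 12; 0% = biofilm with clotrimazole alone and 100% = kill control; retested singly at about 60 µM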
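Probe or stimulus – Clotrimazole 50 µg/mL co-treatment · System – C. albicans biofilms · Schedule – 24 h biofilm formation, then 48 h compound exposure, 37 °C · Evaluation – percent inhibition of biofilm viability · Technique – 2-h Alamar Blue fluorescence, 535/590 nm excitation/emission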
Numbers without * were called inactive. A portion of the library; the hit share may differ from the screen's.

No. | molecule | Biofilm kill mix
1 | COC(=O)Nc1ccc(S(=O)(=O)N2CCCC(C(=O)N3CCN(C)CC3)C2)cc1 (stereo not drawn) | -3
2 | O=c1[nH]c2ccccc2nc1/C=C/c1ccc(Cl)cc1 | 1
3 | Cc1cc(C)cc(NC(=S)N2CCN(CCO)CC2)c1 | 12
4 | C1CN(c2nc(N3CCOCC3)nc(N3CCOCC3)n2)CCO1 | 9
5 | COC(=O)c1ccc(COc2ccccc2/C=C(\C#N)C(=O)Nc2c(C)cc(C)cc2C)cc1 | 10
6 | CC1CCCCC1n1c(-c2cccnc2)n[nH]c1=S (stereo not drawn) | 18
7 | O=C(O)c1nccnc1C(=O)N1CCN(c2ccccc2)CC1 | 6
8 | Cc1ccc(OCCn2cc(/C=N/NC(=O)c3ccncc3)c3ccccc32)cc1 | 7
9 | CC(=O)Nc1cccc(-c2nc3ccc(NC(C)=O)cc3s2)c1 | 7
10 | CCOc1ccc(N=C2NC(=O)/C(=C/C(=O)OC)S2)cc1 | 13
11 | Cc1ccc(S(=O)(=O)N(C)c2cc(S(=O)(=O)Nc3ccncc3)c(C)cc2C)cc1 | 14
12 | CC1=Nc2cc(C(=O)NCC3CCCO3)ccc2Sc2ccc(Br)cc21 (stereo not drawn) | 26
13 | CCOC(=O)N1CCN(C(=O)c2ccc(Cl)nc2)CC1 | 12
14 | CCOC(=O)N1CCN(C(=O)Cc2cccc3ccccc23)CC1 | 15
15 | Fc1ccc(-n2cc(-c3ccccc3)[n+]3c2SCC3)cc1 | 13
16 | C[C@@H](C(=O)N[C@@H](Cc1ccccc1)C(=O)O)n1nnc2ccccc2c1=O | 15
17 | O=C(c1ccc(N2CCN(C3CC(=O)N(Cc4cccs4)C3=O)CC2)cc1)c1cccnc1 (stereo not drawn) | 16
18 | CSCCC(NS(=O)(=O)c1cccs1)C(=O)NCc1ccccc1 (stereo not drawn) | 11
19 | O=C(NCC(c1cccs1)N1CCOCC1)c1cc([N+](=O)[O-])cc([N+](=O)[O-])c1 (stereo not drawn) | 12
20 | Cc1cc(C)n2nc(Sc3ncccc3[N+](=O)[O-])nc2n1 | 17
21 | O=[N+]([O-])c1ccc(CSc2nc3ccccc3[nH]2)cc1 | 13
22 | Cn1nc(C(F)(F)F)c(-c2ccc(Br)cc2)c1NC(=O)c1cccnc1 | 13
23 | Fc1ccc(CNC(=S)Nc2ccc(Cl)cc2Cl)cc1 | 10
24 | COc1ccc(/C=C(\C#N)C(=O)Nc2cccnc2)cc1 | 15
25 | COc1ccc(C2(CNC(=O)c3ccc(C)cc3)CCOCC2)cc1 | 16
26 | Cc1cc(N2CCCC2)ccc1/C=C1/C(=O)N(C)C(=S)N1C | 9
27 | CC(C)COC(=O)c1cccc2c1-c1ccccc1/C2=N\O | -1
28 | COC(=O)N/N=C(C)\C=C\c1ccco1 | 12
29 | CCOC(=O)N1CCN(C(=S)NC(=O)C2CCCC2)CC1 | 11
30 | Cc1ccc(N2C(S)=C(C#N)C(=O)NC2c2cccs2)cc1 (stereo not drawn) | 8

Random excerpt: 4 compounds from above, in no set order.
No. | molecule | Biofilm kill mix
15 | Fc1ccc(-n2cc(-c3ccccc3)[n+]3c2SCC3)cc1 | 13
4 | C1CN(c2nc(N3CCOCC3)nc(N3CCOCC3)n2)CCO1 | 9
17 | O=C(c1ccc(N2CCN(C3CC(=O)N(Cc4cccs4)C3=O)CC2)cc1)c1cccnc1 (stereo not drawn) | 16
25 | COc1ccc(C2(CNC(=O)c3ccc(C)cc3)CCOCC2)cc1 | 16

Following part:
No. | molecule | Biofilm kill mix
31 | CCC(C(=O)Nc1cc(Cl)ccc1OC)c1ccccc1 (stereo not drawn) | 1
32 | O=c1c2ccccc2nnn1COc1cccc2ccccc12 | 11
33 | Cc1ccc(S(=O)(=O)N(C)C)cc1NC(=S)NCc1ccco1 | 4
34 | COc1cc(/C=C2\COC/C(=C\c3cc(OC)c(OC)c(OC)c3)C2=O)cc(OC)c1OC | 16
35 | CCC/C(O)=C1\C(=O)CCCC1=NCCc1ccc(OCC)c(OCC)c1 | 13
36 | C=CCn1c(C(CCCC)CC(O)COCCC)n[nH]c1=S (stereo not drawn) | 14
37 | O=C(NC(=S)Nc1nc2ccccc2s1)c1ccco1 | 4
38 | CC(=O)N1CSCC1C(=O)NNS(=O)(=O)c1ccccc1 (stereo not drawn) | 31
39 | Cc1ccc(-c2ccc(S(=O)(=O)NCC3CCCO3)cc2)cc1 (stereo not drawn) | 7
40 | CCOC(=O)N1CCC(NC(=O)c2cc(C(=O)NC3CCN(Cc4ccccc4)CC3)ccc2CO)CC1 | 8
41 | Cc1ccc(N2CCC(N3CCN(C4CCCCC4)C(CCO)C3)CC2)cc1 (stereo not drawn) | 15
42 | COCCNC(=O)CCC(=O)NNc1nc2ccccc2c2nc(-c3ccccc3)nn12 | 20
43 | COCCCN(C(=S)Nc1ccc(OC)cc1)C(C)c1ccncc1 (stereo not drawn) | 15
44 | COc1ccc([N+](=O)[O-])cc1NC(=O)CCN1CCN(CCO)CC1 | 5
45 | CCn1ccnc1CN(C)Cc1cn(-c2cc(C)ccc2C)nc1-c1ccccc1 | 0
46 | Cc1nn(-c2ccccc2)c(C)c1/C=N/Nc1nc2ccccc2[nH]1 | -6
47 | O=C(Nc1ccccc1)ON=C1CCCC1 | -1
48 | COc1ccccc1NC(=O)CC(c1ccc(OC(C)C)cc1)c1ccccc1OC (stereo not drawn) | 7
49 | O=S(=O)(c1ccccc1)N1CCN(C(=S)Nc2ccc(F)cc2)CC1 | 21
50 | CCN(CC)S(=O)(=O)c1cc(NC(=O)CSc2nc3c(cc2C#N)C(=O)CC(C)(C)C3)ccc1C | 10
51 | O=C(CSc1nnc(-c2ccccc2)c(-c2ccccc2)n1)NCc1ccco1 | 4
52 | Cn1cnnc1SCC(=O)Nc1nc(-c2ccccc2)cs1 | -2
53 | COc1ccc(-c2ccc(C(=O)O)c(=O)[nH]2)cc1 | 17
54 | Cc1cccn2cc(CCNS(=O)(=O)c3ccc([N+](=O)[O-])cc3)nc12 | 8
55 | O=C1NC(=O)C2C1C(c1ccc([N+](=O)[O-])cc1)=NN2Cc1ccccc1 (stereo not drawn) | 18
56 | Cc1cc(NC(=O)CSc2nc(-c3ccccc3)nc3c2c(=O)n(C)c(=O)n3C)no1 | 14
57 | COc1nc(-c2ccc(Cl)cc2)nnc1C | 16
58 | COc1cc(/C=N/NC(=O)C(Cc2c[nH]c3ccccc23)NC(=O)OCC(C)C)cc([N+](=O)[O-])c1O (stereo not drawn) | -5
59 | Cc1[nH]n(C2=NCCS2)c(=O)c1N=Nc1cccc(C(F)(F)F)c1 | 18
60 | O=C(COC(=O)c1ccc(NS(=O)(=O)c2cccs2)cc1O)Nc1nc2ccccc2s1 | 7

Laid out differently: 4 of the compounds above.
#40 CCOC(=O)N1CCC(NC(=O)c2cc(C(=O)NC3CCN(Cc4ccccc4)CC3)ccc2CO)CC1
  Biofilm kill mix = 8
#41 Cc1ccc(N2CCC(N3CCN(C4CCCCC4)C(CCO)C3)CC2)cc1 (stereo not drawn)
  Biofilm kill mix = 15
#42 COCCNC(=O)CCC(=O)NNc1nc2ccccc2c2nc(-c3ccccc3)nn12
  Biofilm kill mix = 20
#43 COCCCN(C(=S)Nc1ccc(OC)cc1)C(C)c1ccncc1 (stereo not drawn)
  Biofilm kill mix = 15

Back to the main list with the 2 entries that preceded the break.
No. | molecule | Biofilm kill mix
59 | Cc1[nH]n(C2=NCCS2)c(=O)c1N=Nc1cccc(C(F)(F)F)c1 | 18
60 | O=C(COC(=O)c1ccc(NS(=O)(=O)c2cccs2)cc1O)Nc1nc2ccccc2s1 | 7
61 | CSc1nnc(C(C)c2ncc(C(F)(F)F)cc2Cl)n1C (stereo not drawn) | 2
62 | Cc1ccc(-c2nnc(SCC(=O)N/N=C/c3cccs3)n2-c2ccc(C)cc2)cc1 | 21
63 | CCOC(=O)C1(Cc2ccc(OC)cc2)CCN(S(C)(=O)=O)CC1 | -3
64 | CCOC(=O)N1CCN(C(=O)c2noc(C(C)C)c2[N+](=O)[O-])CC1 | 12
65 | OC(COC(c1ccccc1)c1ccccc1)CN1CCc2ccccc2C1 (stereo not drawn) | 16
66 | Cc1c(NC(=O)c2ccc(N(C)S(C)(=O)=O)cc2)c(=O)n(-c2ccccc2)n1C | 19
67 | COC(=O)c1nc(N)sc1C(C)C | 17
68 | C=CCn1c(SCc2cc(=O)n3cc(C)ccc3n2)nnc1-c1ccc(F)cc1 | 17
69 | O=C(CSCc1ccccc1)Nc1ccc(F)c(F)c1 | 18
70 | O=C(COC(=O)C12CC3CC(CC(C3)C1)C2)NCCCc1ccccc1 | 21
71 | COc1cc(NC(=S)NC(=O)CC(C)C)ccc1NC(=O)c1cc2ccccc2o1 | 9
72 | Cc1ccc(C)c(-n2cc(CN3CCN(C(=O)c4ncn[nH]4)CC3)c(-c3ccccc3)n2)c1 | -1
73 | COc1ccc(/C(C)=N/NC(=O)CNC(=O)c2cccs2)cc1OC | 1
74 | FC(F)Oc1ccccc1NC(=S)Nc1cccc(Cl)c1Cl | -9
75 | c1ccc(-c2cc3c(NCC4COc5ccccc5O4)ncnc3s2)cc1 (stereo not drawn) | 9
76 | CCCC1(C(=O)OC)NC(c2ccco2)C2C(=O)N(C)C(=O)C21 (stereo not drawn) | -7
77 | CCNc1ccc(S(=O)(=O)N(C)C)cc1NCC(=O)Nc1ccccc1Cl | 2
78 | O=C1CCCc2nn(-c3ccccc3)nc21 | 13
79 | CC1(C)OC(=O)C(=NNc2ccc(Br)cc2)C(=O)O1 | 12
80 | CCOC(=O)C1(Cc2ccc(OC)cc2)CCN(C(=O)C2CCCO2)CC1 (stereo not drawn) | 8
81 | O=C(CSc1nnc(-c2ccncc2)n1CC1CCCO1)Nc1ccccc1Cl (stereo not drawn) | 4
82 | CCn1c2c(c(=N)c3ccccc31)CCC2 | 14
83 | COc1cccc(CNC(=O)C(Cc2ccccc2)n2cccc2)c1 (stereo not drawn) | 25
84 | Cc1cc(C)c(NC(=O)CSc2ccc3nnc(CCNC(=O)c4ccccc4)n3n2)c(C)c1 | 8
85 | COc1cccc(Oc2nccc(N(C)C)c2C#N)c1 | 12
86 | CCCCC1=CC2=CC(=O)C(C)(OC(=O)CC)C(=O)C2=CN1Cc1ccc2c(c1)OCO2 (stereo not drawn) | 11
87 | Cn1c(N=Nc2ccc(N3CCOCC3)cc2)[n+](C)c2ccccc21 | 14
88 | Cc1nccc(-c2cc(-c3ccc(Cl)cc3Cl)no2)n1 | 16
89 | O=C(Cc1ccc(Cl)cc1)Nc1ccc2c(c1)C(=O)NC2=O | 18
90 | Nc1n[nH]c(-c2ccccc2[N+](=O)[O-])n1 | 3
91 | N/C(=N\OC(=O)C12CC3CC(CC(C3)C1)C2)c1ccncc1 | 16
92 | COc1ccccc1NC(=O)C1CCCN(c2nc(C)cc(C)n2)C1 (stereo not drawn) | 16
93 | COc1cc(/C=N/NC(=O)Cc2ccccc2)ccc1Oc1ccc([N+](=O)[O-])cc1[N+](=O)[O-] | 13
94 | CCOc1ccc(N2C(=O)/C(=C/c3ccco3)N(C)C2=S)cc1 | 11
95 | O=C(NCCCN1CCC(Cc2ccccc2)CC1)c1ccc2nc(N3CCOCC3)sc2c1 | 6
96 | COc1ccc(N2CCN(C(=O)Cn3nnc(-c4ccccc4N)n3)CC2)cc1 | 18
97 | N#Cc1ccccc1S(=O)(=O)Nc1ccc2c(c1)C(=O)OC2 | 11
98 | COC(=O)[C@@H]1C[C@@]2(O)[C@@H](O)[C@@H](O)[C@@H](O)C[C@H]2N1CC(c1ccccc1)c1ccccc1 | 13
99 | O=c1c2[nH]c3ccc(F)cc3c2ncn1CCC1=CCCCC1 | 16
100 | O=C(NC1CCCCC1)C(c1ccccn1)N(C(=O)c1csnn1)C1CC1 (stereo not drawn) | 21
101 | Cn1cnnc1SCC(=O)N/N=C/c1ccc(OCC(N)=O)cc1 | 24
102 | CCC(=O)N1N=C(c2ccccc2)CC1c1ccc([N+](=O)[O-])cc1 (stereo not drawn) | 10
103 | O=C1CC(/C=C/c2ccc([N+](=O)[O-])cc2)=Nc2ccccc2N1 | 7
104 | COc1ccc(/C=N/Nc2ncc(C(F)(F)F)cc2Cl)cc1OC | 21
105 | CC1c2[nH]c3ccccc3c2CCN1C(=O)Nc1ccccc1 (stereo not drawn) | 9
106 | O=C(c1ccc(=O)[nH]n1)N1CCN(S(=O)(=O)c2ccc3ccccc3c2)CC1 | 9
107 | COc1ccc(NC(=O)COC(=O)[C@@H](NC(=O)c2c(F)cccc2F)C(C)C)cc1 | 13
108 | O=C(Cc1ccc(Br)cc1)N(Cc1ccccc1)c1ccccn1 | -1
109 | CCCCNS(=O)(=O)c1ccc2nc(-c3cccnc3)cc(C(=O)NC(C)CC)c2c1 (stereo not drawn) | 12
110 | COc1ccccc1CCc1nnc(CCC(=O)NC(C)Cc2cccnc2)o1 (stereo not drawn) | 19
111 | Cc1cc(Sc2nc(NC(C)(C)C)nc(N3CCOCC3)n2)nc(Cl)n1 | 8
112 | O=C(CCc1ccccc1)NN1C(=O)C2C3C=CC(O3)C2C1=O (stereo not drawn) | 10
113 | CCOc1ccc(/C=N/OCC(=O)NCc2cccs2)cc1 | 15
114 | CC(C)CNC(=S)NC(=O)c1ccc(Cl)cc1Cl | 7
115 | Cn1nc(C(=O)NCCOc2ccccc2)c2ccccc2c1=O | 12
116 | Cc1ccc2nc(N(CCCN(C)C)C(=O)COc3ccc(Cl)cc3)sc2c1 | 19
117 | Cc1nc2c([N+](=O)[O-])c(C)c(C)cc2[nH]1 | 12
118 | COc1ccc(NC(=O)C2=C(C)NC(=S)NC2c2ccc(O)c(OC)c2)cc1 (stereo not drawn) | 33
119 | O=S(=O)(Nc1ccc(-c2nc3cccnc3s2)cc1)c1ccccc1F | 29
120 | CC(C)(C)N(NC(=O)c1ccccc1)C(=O)c1ccc(C(=O)N(NC(=O)c2ccccc2)C(C)(C)C)cc1 | 21

Bioassay records from PubChem BioAssay.
